MARV entry inh: qHTS for inhibitors of binding or entry into cells for Marburg Virus; hit rate 1.8% among 300,000; Potency, µM (top dose mostly 37.8 µM), for inactives: at the highest dose activity change, negative = inhibition, most hits filed as inhibitors; Marburg virus pseudotyped entry inhibition, cell reporter; control for the full effect not named in the record; about a third of the inactives were read at about 46 µM; active = well fitted inhibition curve with a large enough effect; inconclusive = small, poorly fitted or top-dose-only effect, or effect the other way; inactive = flat fitted curve, though single readings scatter; tested in HEK293 cells; about a fifth of its hits are not listed in these tables; further: on the % scale 0 is the no-effect control and ±100 the full control effect; luciferase read-out
StopGo reporter: High Throughput Screening for Foot and Mouth Disease Virus Antivirals | human cells with a luciferase reporter of 2A StopGo recoding; control for the full effect not named in the record | Potency, µM (highest dose often 57.9 µM), for inactives: at the highest dose signal change, negative = less light | hit rate 1.2% among 410,000; active = well fitted falling curve with a large enough effect; inconclusive = small, poorly fitted or top-dose-only effect; inactive = no such curve, though single readings can be large or run the other way; tested in HEK293T cells; further: on the % scale 0 is the no-effect control and ±100 the full control effect; nearly all actives have a fitted effect of over 45% in size; luciferase light after 4 h
Cruzain inh Det: qHTS Assay for Promiscuous and Specific Inhibitors of Cruzain (with detergent); purified cruzain, Z-FR-AMC fluorescence, 0.01% Triton; hit rate 0.43% among 200,000; Potency, µM, without a hit: max response, negative = inhibition, actives largely listed as inhibitors; active means well fitted curve in the direction sought with a large enough effect; inconclusive means small, poorly fitted or top-dose-only effect, or another doubt; inactive means no such curve, though single readings can be large; an effect the other way counts as inactive or inconclusive;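 further: plate controls were neutral wells for no effect and buffer without enzyme for full effect; nearly all actives have a fitted effect of over 40% in size; top concentration of the series not given in the record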
Target sequence (P25779 123-467 limits assumed): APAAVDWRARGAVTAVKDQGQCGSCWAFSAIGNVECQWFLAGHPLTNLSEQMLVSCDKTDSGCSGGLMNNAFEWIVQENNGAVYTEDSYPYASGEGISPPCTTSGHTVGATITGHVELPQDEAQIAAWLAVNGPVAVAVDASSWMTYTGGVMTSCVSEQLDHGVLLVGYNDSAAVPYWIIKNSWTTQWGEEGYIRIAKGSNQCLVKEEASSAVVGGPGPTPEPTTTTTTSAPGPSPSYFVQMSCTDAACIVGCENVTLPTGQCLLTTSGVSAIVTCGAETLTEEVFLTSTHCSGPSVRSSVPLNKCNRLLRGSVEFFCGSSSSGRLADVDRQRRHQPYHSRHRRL
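15 min RT preincubation of 1.5 nM cruzain with compound, then 2 uM Z-FR-AMC added; kinetic AMC fluorescence, 60 s delta. Triton X-100 0.01%, pH 5.5.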
SARS PLP yeast: qHTS of Yeast-based Assay for SARS-CoV PLP; S. cerevisiae expressing SARS-CoV PLpro, growth rescue; control for the full effect not named in the record; Potency, µM (top dose mostly 32.9 µM), inactives show at the highest dose activity, positive = growth rescue; hit rate 0.19% among 330,000; further: 0% is about no effect; nearly all actives have a fitted effect of over 55% in size; growth read by luminescence after 48 h
Cruzain noTriton: qHTS Assay for Promiscuous and Specific Inhibitors of Cruzain (without detergent); Potency, µM, inactives show max response, negative = inhibition, most hits filed as inhibitors; Cruzipain (Trypanosoma cruzi), P25779; hit rate 2.3% among 200,000; purified cruzain, Z-FR-AMC fluorescence, no detergent; AID 1476, 2009; active means well fitted curve in the direction sought with a large enough effect; inconclusive means small, poorly fitted or top-dose-only effect, or another doubt; inactive means no such curve, though single readings can be large; an effect the other way counts as inactive or inconclusive;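 further: plate controls were enzyme without inhibitor for no effect and buffer without enzyme for full effect; nearly all actives have a fitted effect of over 40% in size; top concentration of the series not given in the record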
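Detergent-free condition (0.00005% Triton X-100) in acetate buffer pH 5.5 with DTT. 1.5 nM enzyme and compound were pre-mixed 15 min, then 2 uM Z-FR-AMC substrate added; reaction progress from fluorescence change between first and third reads (60 s).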
LASV entry inh: qHTS for Inhibitors of binding or entry into cells for Lassa Virus. Lassa virus pseudotype entry inhibition, cell reporter; control for the full effect not named in the record. Potency, µM (doses to about 37.9 µM), for the others: at the top dose activity change, negative = inhibition, most hits filed as inhibitors. hit rate 1.2% among 300,000; active means well fitted inhibition curve with a large enough effect; inconclusive means small, poorly fitted or top-dose-only effect, or effect the other way; inactive means flat fitted curve, though single readings scatter; tested in HEK293 cells; further: on the % scale 0 is the no-effect control and ±100 the full control effect; nearly all actives have a fitted effect of over 50% in size; luciferase read-out
RE007 growth inh: qHTS Assay for Inhibitors of the HIV-1 protein Vpr; S. pombe RE007 Vpr strain, BacTiter-Glo ATP luminescence, 24 h; control for the full effect not named in the record; Potency, µM (highest dose often 92.2 µM), for inactives: at the highest dose activity change, negative = less growth; hit rate 0.21% among 360,000; AID 651644, 2012; active = well fitted falling curve with a large enough effect; inconclusive = small, poorly fitted or top-dose-only effect; inactive = no such curve, though single readings can be large or run the other way;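 further: on the % scale 0 is the no-effect control and ±100 the full control effect; nearly all actives have a fitted effect of over 50% in size; the assay follows cell death caused by Vpr and the record does not say whether a fall means rescue or toxicity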
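Fission yeast RE007 carrying one integrated HIV-1 vpr copy, seeded at OD 0.01 in PMG+AL medium with 23 nL pinned compound. Grown 24 h at 30 degrees; viability read by BacTiter-Glo luminescence after 5 min.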
NS1 inh: qHTS Assay for Inhibitors of Influenza NS1 Protein Function | S. cerevisiae slowed by influenza A NS1, growth recovery by OD600 | Potency, µM (titrated, usually from 46.1 µM), for inactives: top-dose activity, positive = more growth | hit rate 0.4% among 270,000; further: actives are rising curves; nearly all actives have a fitted effect of over 50% in size
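Read-out: OD600 growth recovery of NS1-expressing budding yeast. Cells grown overnight at 30C in -URA glucose medium, washed, resuspended and diluted 1:100 in 2% galactose assay medium, pH 6.0. Same strain lacking NS1 served as positive control.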
Numbers without * were called inactive; ? = inconclusive; / = not tested or not shown; & = joins results of further samples; [ ] = another dose, or the depositor's remark. Unless noted, the call rests on the fitted dose curve; in most records, active means well fitted rising curve with a large enough effect; inconclusive means small, poorly fitted or top-dose-only effect; inactive means no such curve, though single readings can be large or run the other way. Potency means the concentration at half of the fitted maximal effect.

Order of results: MARV entry inh	StopGo reporter	Cruzain inh Det	SARS PLP yeast	Cruzain noTriton	LASV entry inh	RE007 growth inh	NS1 inh
#1 O=C(c1ccccc1)C1CCN(C(=O)c2ccco2)CC1
→ /	-15%	/	-2%	/	/	-1%	-10%
#2 CC(C)Oc1ccc(C(=O)OCC(=O)NCCNC(=O)COC(=O)c2ccc(OC(C)C)cc2)cc1
→ /	6%	/	-2%	/	/	-4%	2%
#3 CCCc1nnc(NC(=O)c2nc(S(=O)(=O)Cc3cccc(C)c3)ncc2Cl)s1
→ /	28µM*	/	1%	/	/	2%	21%
#4 CC(C)CC(c1nnnn1CC1CCCO1)N1CCN(C2CCCC2)CC1 (configuration not stated)
→ 11%&11%[46.1 µM]	-19%	3.3%	3%	6%	0%	15%	-2%
#5 Cc1nn(-c2ccccc2)c(Cl)c1C(=O)NC1CCCCC1
→ -2%[46.1 µM]	10%	/	-1%	/	-13%	2%	-5%
#6 COc1ccc(S(=O)(=O)/N=C2\C=C(NS(=O)(=O)c3ccccc3)C(=O)c3ccccc32)cc1
→ -2%[46.1 µM]	36%[activator]	/	-9%	/	-2%[46.1 µM]	-27%	-9%
#7 Cc1sc(=NC(=O)c2ccco2)n(C)c1-c1ccc(Cl)cc1
→ 4%	/	-9.9%	-11%	-3%	-8%	-18%	-14%
#8 Cc1cc(C)n2nc(CNS(=O)(=O)c3ccc(CC(C)C)cc3)nc2n1
→ /	-9%	/	-3%	/	/	-8%	2%
#9 CCCCn1c(Oc2ccc(C(=O)OC)cc2)nc2c1c(=O)n(C)c(=O)n2C
→ -8%	/	-0.4%	7%	?	-7%	-16%	0%
#10 CC1CN(CC(=O)NN=C(c2ccccc2)c2ccccc2)CC(C)O1 (configuration not stated)
→ /	-20%	/	-1%	/	/	9%	-2%
#11 Cc1cc(Cl)ccc1OCC(=O)Nc1ccncc1
→ /	-20%	/	-12%	/	/	-8%	-82%
#12 COc1ccc(S(=O)(=O)n2nc(OC(=O)C3CCCCC3)cc2N)cc1
→ -5%	-15%	-11%	-10%	-8%	-5%	-19%	-3%
#13 O=S(=O)(NCc1ccccn1)C(F)(F)F
→ /	0%	/	26%	/	/	5%	0%
#14 CCCCOc1ccc(C(=O)N/C(=C/c2cccc([N+](=O)[O-])c2)C(=O)O)cc1
→ -13%[46.1 µM]	-1%	/	0%	/	10%[46.1 µM]	18%	-6%
#15 Cc1noc(C(=O)N2CCN(c3ccccc3)CC2)c1Cl
→ /	-25%	/	3%	/	/	5%	4%
#16 Cc1ccccc1NC(=O)COC(=O)[C@@H]1CCCN1C(=O)c1cccs1
→ 6%[46.1 µM]	-6%	/	-1%	/	-2%[46.1 µM]	6%	/
#17 Cc1ccc(OCC(=O)N2CCCc3ccccc32)cc1
→ 19%	27%	-3.1%	-1%	7%	8%	-18%	0%
#18 Cc1ccc2cc(CCNC(=O)C(=O)c3c[nH]c4ccccc34)c(=O)[nH]c2c1
→ ?	-30%	/	1%	/	?	14%	5%
#19 NN=C(NN=Cc1ccccc1)c1ccccc1
→ 4%	44%[activator]	/	/	/	?	5%	/
#20 COc1ccccc1CCNC(=O)C(=O)NCC1OCCCN1S(=O)(=O)c1ccc(F)cc1C (configuration not stated)
→ -20%	-25%	/	-3%	/	?	-3%	-11%
#21 S=c1[nH]nc(-c2ccccn2)n1/N=C/c1ccc(Cl)cc1
→ 19%	2%	/	-2%	/	17%	5%	2%
#22 C/C(CCC(C)C)=N\NC(=S)Nc1cc(S(=O)(=O)N2CCOCC2)ccc1N1CCOCC1
→ -4%[46.1 µM]	-6%	/	14%	/	5%	0%	/
#23 O=C(NCCCO)c1ccc2nc(-c3ccco3)c(-c3ccco3)nc2c1
→ 3%&3%[46.1 µM]	0%	/	0%	/	?	-28%	/
#24 Cc1ccc(C)c(OCCOCCN2CC(C)OC(C)C2)c1C (configuration not stated)
→ -26%	3%	2.3%	-7%	12%	-20%	14%	-10%
#25 CC(C)NS(=O)(=O)c1ccc(OCC(=O)N2CCN(C)CC2)cc1
→ /	-13%	7.4%	8%	-18%	/	22%	0%
#26 CCCCCCCCCCSc1n[nH]c(N)n1
→ ?	30%[activator]	-8.7%	-101%	10%	-20%	-11%	-44%
#27 Cc1cccc(N(CC(=O)NCc2ccco2)C(=O)CCC(=O)Nc2ccccn2)c1
→ ?	1%	-2.8%	1%	0%	0%	1%	-9%
#28 COc1cc(C2CC(=O)c3cnc(N4CCN(CCO)CC4)nc3C2)cc(OC)c1OC (configuration not stated)
→ -9%[46.1 µM]	-7%	-2.7%	/	-9%	-21%[46.1 µM]	/	/
#29 Cc1cccc(CCNC(=O)CC2C(=O)NCCN2Cc2ccccc2C)n1 (configuration not stated)
→ -3%[46.1 µM]	-2%	/	2%	/	1%[46.1 µM]	-8%	21%
#30 CCN(CC)C(=O)CSc1ccccc1N
→ 7%	8%	0.6%	5%	-7%	6%	-2%	-13%
#31 COc1cc2nc(NCCCN3CCN(C)CC3)n3nc(-c4ccccc4)nc3c2cc1OC
→ ?	?	-6.4%	7%	-7%	-10%	23%	-3%
#32 CCOc1ccc(OCC(=O)Nc2ccc(S(=O)(=O)Nc3cc(C)nc(C)n3)cc2)cc1
→ -14%	49%[activator]	-0.5%	1%	-6%	3%	8%	11%
#33 O=C(c1cccc([N+](=O)[O-])c1)N1CCN(Cc2ccc3c(c2)OCO3)CC1
→ 19%[46.1 µM]	-15%	/	1%	/	0%	-2%	1%
#34 Cc1noc(C)c1C(=O)NCCc1ccc(Cl)cc1
→ 5%	6%	6.0%	1%	2%	12%	8%	-4%
#35 C/C=C/C(=O)OCc1csc(CC(=O)Nc2ccccc2C)n1
→ -17%[46.1 µM]	-14%	/	0%	/	-13%[46.1 µM]	-1%	-9%
#36 COc1ccc(/C=C(\C#N)C(=O)OCC(=O)NCc2ccco2)cc1
→ 28%	20%	/	0%	/	1%	-2%	3%
#37 O=C(NCC(c1cccnc1)N1CCc2ccccc21)c1ccc(F)c(F)c1 (configuration not stated)
→ /	-19%	-11%	/	?	-7%[46.1 µM]	/	/
#38 COc1cc(C(=S)N2CCCCC2)ccc1OCC(=O)Nc1ccc(F)cc1
→ /	-12%	/	5%	/	/	1%	-54%
#39 COc1ccc(-c2cc(C(=O)N3CCCCC3)c3ccccc3n2)cc1
→ -9%	41%[activator]	/	-13%	/	-8%	-7%	/
#40 Cc1cc(C(=O)N2CCOCC2)ccc1[N+](=O)[O-]
→ ?	-14%	/	2%	/	-4%	1%	1%
#41 CCN1CCN(Cc2cc3c(cc2[N+](=O)[O-])OCO3)CC1
→ /	-12%	/	3%	/	/	10%	21%
#42 CC(=O)N1CCN(C(=O)COC(=O)c2ccc(S(C)(=O)=O)cc2)CC1
→ 28%[46.1 µM]	-4%	/	2%	/	?	-2%	/
#43 COC(=O)CNC(=O)COc1ccccc1
→ 5%	4%	-1.9%	11%	-10%	?	-13%	19%
#44 Cc1ccc(-c2cc(C(=O)N3CCN(C(=O)c4ccco4)CC3)[nH]n2)cc1C
→ 1%[46.1 µM]	2%	/	-8%	/	?	-1%	4%
#45 CC(NC(=O)c1ccccc1Br)C1CC2CCC1C2 (configuration not stated)
→ 3%[46.1 µM]	-2%	/	/	/	-25%[46.1 µM]	32%	/
#46 O=C1CN(C(=O)OCc2ccccc2)c2ccccc2N1
→ 11%	40%[activator]	0.4%	0%	-6%	17%	13%	-18%
#47 Cc1ccc(CCNC(=O)Cc2ccc(NC3=NC4CS(=O)(=O)CC4S3)cc2)cc1 (configuration not stated)
→ /	13%	/	-5%	/	/	7%	16%
#48 CCn1c(C)cc(/C=C2/NC(=O)N(c3ccccc3)C2=O)c1C
→ -25%	45%[activator]	/	-2%	/	?	-8%	13%
#49 O=C(CN(Cc1ccc(Cl)cc1)C(=O)CNS(=O)(=O)c1ccc(F)cc1)NCC1CCCO1 (configuration not stated)
→ 9%[46.1 µM]	5%	/	0%	/	10%[46.1 µM]	3%	2%
#50 Cc1nn(-c2ccccc2)c2nc(-c3ccccc3)cc(C(=O)N3CCOCC3)c12
→ ?	?	/	-9%	/	-22%	-10%	/
#51 CCOc1cc(CNCCSc2nnnn2-c2ccccc2)cc(Cl)c1OC
→ ?	-18%	0.9%	/	16%	22%[46.1 µM]	/	/
#52 O=C(Nc1ccc2ccccc2c1)[C@@H]1C[C@H]1[C@@H](NP(=O)(c1ccccc1)c1ccccc1)c1ccccc1
→ -36%	-12%	-3.4%&3.1%	-17%	?	?	-9%	?
#53 CCC(=O)Oc1ccc2c(C)cc(=O)oc2c1C
→ -3%	1%	1.4%	2%	-3%	-3%	11%	6%
#54 CCOC(=O)N/N=C/c1cn(Cc2ccccc2Cl)c2ccccc12
→ ?	0%	-5.5%	-5%	12%	?	16%	?
#55 CCOC(=O)c1cnn(-c2ccc(OC)cc2)c1C1CCN(C(=O)OC(C)(C)C)CC1
→ ?	-17%	-7.1%	/	?	?	/	/
#56 c1ccc(C2=NNC(c3ccccn3)=NN2)nc1
→ /	-22%	/	0%	/	/	-10%	-31%
#57 Cc1oc(-c2ccccc2Cl)nc1CS(=O)CC(=O)NCc1ccccc1Cl (configuration not stated)
→ -18%&2%[46.1 µM]	12%&42%	-11%	-1%	21%	-16%&14%[46.1 µM]	6%	-9%
#58 Cc1cc2c(c(=O)n1C)C(C(C)C)C(C#N)=C(N)O2 (configuration not stated)
→ ?	-17%	0.7%	4%	2%	-2%	2%	-1%
#59 CCOC(=O)c1c(C)[nH]c(C(=O)C(C)Cl)c1C (configuration not stated)
→ ?	-14%	/	-1%	/	-11%	-24%	2%
#60 Cc1ccc(Oc2c(CO)c(-c3ccccc3)nn2C)cc1
→ ?	-20%	/	-4%	/	?	6%	-2%

Screens (PubChem)
